# From PubChem BioAssay
# HPDE-C7 viability: cytotoxicity in HPDE-C7 cells, cell-based, fluorescence, HTS (AID 430) | HPDE-C7 pancreatic duct cells viability, fluorescence; higher % means a stronger effect | cytotoxicity, % at 10 µM, or EC50 in µM where a hit was titrated | 63,000 tested, 1.8% active;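 note: cells exposed to compound for 48 hours before viability readout; 0% = vehicle and 100% = reference cytotoxic drug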
# TNAP inhibition: inhibition of tissue-nonspecific alkaline phosphatase – biochemical, luminescent (AID 518); purified TNAP enzyme, luminescent substrate readout; higher % means a stronger effect; one-dose inhibition, % at 20 µM; IC50 in µM for titrated hits; 64,000 tested, 0.09% active; in the data active = a potency from the dose series; inactive = the rest, 99 in 100 with inhibition below about 22%;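 note: plate controls were vehicle for no effect and reference inhibitor for full effect; many of its hits are not listed in these tables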
# HT1080 cytotoxicity: HT1080 cell viability loss – fluorescence readout (AID 620) | HT1080 viability, fluorescence; higher % means a stronger effect | one-dose cytotoxicity, % at 10 µM; EC50 in µM for titrated hits | 87,000 tested, 0.42% active;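 note: cells exposed to compound overnight then 4 h with Alamar Blue; 0% = vehicle DMSO and 100% = killing control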
# LYP phosphatase: LYP phosphatase inhibitors, primary screen, biochemical, DiFMUP fluorescence, recombinant catalytic domain, 10 µM (AID 606); recombinant LYP catalytic domain, DiFMUP fluorescence; higher % means a stronger effect; one-dose inhibition, % at 10 µM; IC50 in µM for titrated hits; 52,000 tested, under 10 active;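 active = IC50 under 40 µM in the dose-response test; inactive = IC50 of 40 µM or more, or never dose-tested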
# Bfl-1 displacement: Bfl-1 inhibitors, primary screen, biochemical, fluorescence polarization, FITC-Bid, mouse (AID 432); FITC-Bid BH3 peptide fluorescence polarization displacement; higher % means a stronger effect; displacement, % at 20 µM, or IC50 in µM where a hit was titrated; 64,000 tested, 0.02% active; in the data active = a potency from the dose series; inactive = the rest, 99 in 100 with displacement below about 15%; note: strong numbers were not always called active
# HPDE-C7K KRASV12: viability loss of HPDE-C7K cells – cell-based, fluorescence, HTS, primary screen (AID 431); HPDE-C7K KRASV12 cells, Alamar Blue viability, 48 h; higher % means a stronger effect; one-dose cytotoxicity, % at 10 µM; EC50 in µM for titrated hits; 63,000 tested, 1.7% active;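 active = compounds whose percent cytotoxicity in the single-dose primary screen, scaled between solvent and toxic-drug controls, exceeds 50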;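 note: 0% = DMSO solvent wells and 100% = doxorubicin-treated wells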
# Active calls of the source: *; . = no result given. Cut-off read from the data, not from the text of the source, unless noted: active = cytotoxicity above about 50%; inactive = the rest. Only part of the results is shown; the hit share may differ from the screen's.
1: COc1ccccc1OCc1nnc(SCCN2CCOCC2)o1
2: COc1ccc(C(=O)CSc2nnc(CNC(=O)c3ccc(OC)c(OC)c3)n2C)cc1
3: COc1cccc(CN2CCN(c3ncccn3)CC2)c1
4: COc1cc(CN2CCN(c3ccccc3F)CC2)cc(OC)c1O
5: O=C(Nc1ccc2c(c1)oc1ccccc12)C1CC1
6: CCOC(=O)C1=C(C)NC(=O)NC1c1c(C)nn(-c2ccccc2)c1Cl (stereo not drawn)
7: CCCCN(CCCC)c1nc2ccccc2nc1C(C#N)C(=O)NCCCOC (stereo not drawn)
8: CC(C)C(=O)N1CCN(c2ccccc2N)CC1
9: Cc1ccc(N2C(=O)[C@@H]3[C@H](C2=O)C2CCCN2[C@@H]3C(=O)c2ccccc2)cc1 (stereo partly drawn)
10: CCOC(=O)c1c(C)c(C(=O)Nc2cc(OC)ccc2OC)c(C)n1CC

screen / no.	1	2	3	4	5	6	7	8	9	10
HPDE-C7 viability	-22%	-3%	8%	0%	7%	-12%	6%	-2%	6%	49%
TNAP inhibition	12%	15%	6%	11%	3%	8%	16%	8%	5%	14%
HT1080 cytotoxicity	-13%	2%	-2%	8%	7%	-4%	7%	8%	-4%	19%
LYP phosphatase	-1%	-5%	0%	16%	.	1%	7%	7%	1%	-18%
Bfl-1 displacement	-5%	-6%	-9%	-5%	-6%	-2%	-133%	0%	-3%	2%
HPDE-C7K KRASV12	-35%	9%	0%	2%	28%	-12%	-12%	-3%	0%	43%

# Complete entries, looked up by structure:
# CCOC(=O)c1c(C)c(C(=O)Nc2cc(OC)ccc2OC)c(C)n1CC is entered as HPDE-C7 viability: 49%; TNAP inhibition: 14%; HT1080 cytotoxicity: 19%; LYP phosphatase: -18%; Bfl-1 displacement: 2%; HPDE-C7K KRASV12: 43%
# Cc1ccc(N2C(=O)[C@@H]3[C@H](C2=O)C2CCCN2[C@@H]3C(=O)c2ccccc2)cc1 (stereo partly drawn) is entered as HPDE-C7 viability: 6%; TNAP inhibition: 5%; HT1080 cytotoxicity: -4%; LYP phosphatase: 1%; Bfl-1 displacement: -3%; HPDE-C7K KRASV12: 0%

# From entry 1 to 3, copied from above:
1: COc1ccccc1OCc1nnc(SCCN2CCOCC2)o1
2: COc1ccc(C(=O)CSc2nnc(CNC(=O)c3ccc(OC)c(OC)c3)n2C)cc1
3: COc1cccc(CN2CCN(c3ncccn3)CC2)c1

screen / no.	1	2	3
HPDE-C7 viability	-22%	-3%	8%
TNAP inhibition	12%	15%	6%
HT1080 cytotoxicity	-13%	2%	-2%
LYP phosphatase	-1%	-5%	0%
Bfl-1 displacement	-5%	-6%	-9%
HPDE-C7K KRASV12	-35%	9%	0%
